From PubChem BioAssay
D2 agonist = Beta-Arrestin HTS for Positive Allosteric Modulators of the Human D2 Dopamine Receptor: Agonists | DiscoveRx PathHunter D2 beta-arrestin, luminescence, 90 min; 100% = 57 uM dopamine signal | activation, % (concentration not given with the values) | 360,000 compounds, 0.084% hits | AID 624465, 2012; in the data active = activation above about 40%; inconclusive = about 15% to 40%; inactive = below about 15%; note: the text of the record calls up to 30% inactive
Target sequence (P14416 whole entry, looked up): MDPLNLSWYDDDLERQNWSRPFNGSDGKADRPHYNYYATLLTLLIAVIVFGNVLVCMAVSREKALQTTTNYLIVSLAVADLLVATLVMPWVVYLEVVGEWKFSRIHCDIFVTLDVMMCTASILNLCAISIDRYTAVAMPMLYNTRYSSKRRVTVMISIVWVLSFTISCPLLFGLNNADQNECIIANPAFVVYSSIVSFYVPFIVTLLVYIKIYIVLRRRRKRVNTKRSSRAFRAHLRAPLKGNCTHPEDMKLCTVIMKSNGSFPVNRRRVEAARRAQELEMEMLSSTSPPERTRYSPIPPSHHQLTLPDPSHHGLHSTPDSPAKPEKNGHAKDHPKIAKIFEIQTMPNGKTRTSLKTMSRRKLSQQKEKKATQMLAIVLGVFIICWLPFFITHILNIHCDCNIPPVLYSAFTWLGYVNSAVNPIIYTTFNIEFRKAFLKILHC
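DiscoveRx PathHunter D2 beta-arrestin cells (2,100/well) attached overnight, then compound-stimulated 90 min at 37 C in HBSS/10 mM HEPES/0.1% Tween-20 buffer; beta-galactosidase complementation read by luminescence after 1 h at ambient temperature. Dopamine 57 uM final (EC100) as control.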
Menin MLL FP FL = qHTS Assay for Inhibitors Targeting the Menin-MLL Interaction in MLL Related Leukemias: Competition With Fluorescein Labeled MLL-derived Peptide; FP activity change, % at 61.4 µM; AID 1766, 2009; 290,000 tested, under 10 active; Fluorescence polarization, fluorescein-MLL peptide displacement from menin; inconclusive = falling polarisation curve, or a change in total fluorescence; inactive = total fluorescence flat and polarisation flat or rising; no compound was filed as active; the % refers to the polarisation; negative = inhibition;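 note: % of control where 0% means no effect; inhibitors lower the polarisation; unlabelled MLL peptide was the positive control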
PINK1 expr mod = A Quantitative High throughput Screen to Identify Chemical Modulators of PINK1 Expression; AID 624263, 2012; PINK1 immunofluorescence, high-content cytometry, 24 h; 410,000 compounds, 0.2% hits; Potency, µM (highest dose often 76.6 µM), for inactives: at the top dose activation (PINK1 increase), actives largely listed as activators; active = well fitted activation curve with a large enough effect; inconclusive = small, poorly fitted or top-dose-only effect; inactive = flat fitted curve, though single readings scatter; cell line not stated here;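 note: potency is the fitted concentration of half-maximal effect; % of control where 0% means no effect; nearly all actives have a fitted effect of over 65% in size; a mitochondrial uncoupler was the plate control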
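Cells are seeded, rested 12 hours, then given compound at five concentrations or DMSO for 24 hours. After fixation, blocking and antibody staining, PINK1 amount and mitochondrial localization are scored; CCCP serves as control.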
gsp ag = qHTS for Agonist of gsp, the Etiologic Mutation Responsible for Fibrous Dysplasia/McCune-Albright Syndrome: qHTS; gsp mutant cells, cAMP HTRF, 30 min; control for the full effect not named in the record; Potency, µM (doses to about 76.9 µM), inactives show top-dose activation (cAMP increase), usual class: activators; 340,000 compounds, 0.13% hits; active = well fitted activation curve with a large enough effect; inconclusive = small, poorly fitted or top-dose-only effect, or another doubt; inactive = no such curve, though single readings can be large or run the other way; cell line not stated here;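 note: phosphodiesterase inhibitor Ro 20-1724 added with compounds to block cAMP breakdown; potency is the fitted concentration of half-maximal effect; nearly all actives have a fitted effect of over 60% in size; about a fifth of the inactives were tested at one dose only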
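Cells in DMEM/10% FBS with G418 were pretreated with compounds in DMSO plus […] (300 uM stock) for 30 min at 37C. cAMP was measured by HTRF (cAMP-d2 plus anti-cAMP antibody-K) after 30 min at room temperature.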
ClpP mod = qHTS Assay for Activators of ClpP; ATP-dependent Clp protease proteolytic subunit (Bacillus subtilis (strain 168)), P80244; purified B. subtilis ClpP, FRET peptide cleavage, 20 min; Potency, µM (top dose mostly 57.5 µM), for inactives: at the highest dose activity change, negative = active; 340,000 compounds, 1.9% hits; AID 651965, 2013; active = well fitted falling curve with a large enough effect; inconclusive = small, poorly fitted or top-dose-only effect; inactive = no such curve, though single readings can be large or run the other way; note: potency is the fitted concentration of half-maximal effect; the source files actives as falling curves though it sought activators and does not explain the sign; nearly all actives have a fitted effect of over 65% in size; many hits overshoot -100%
Target sequence (P80244 whole entry, looked up): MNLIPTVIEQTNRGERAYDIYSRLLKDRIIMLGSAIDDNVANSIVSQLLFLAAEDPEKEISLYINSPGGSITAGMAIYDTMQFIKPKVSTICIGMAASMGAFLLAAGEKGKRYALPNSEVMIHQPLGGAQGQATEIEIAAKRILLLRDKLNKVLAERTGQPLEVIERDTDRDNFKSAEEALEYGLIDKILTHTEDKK
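FRET quenching reversal measured ClpP activation: 10 microg/mL B. subtilis ClpP at pH 8 with the FRET-FV decapeptide, read at 430 nm after 320 nm excitation. The 20-min minus 0-min signal was scaled between DMSO/no-enzyme wells and ADEP (5.8 microM final).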
Sfp PPTase inh = qHTS Assay for Inhibitors of Bacillus subtilis Sfp phosphopantetheinyl transferase (PPTase); Potency, µM, inactives show max response, negative = inhibition, actives largely listed as inhibitors; Biochemical Sfp PPTase activity, qHTS; 310,000 compounds, 3.5% hits; AID 1490, 2009; active = well fitted inhibition curve with a large enough effect; inconclusive = small, poorly fitted or top-dose-only effect, or another doubt; inactive = no such curve, though single readings can be large or run the other way;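 note: the enzyme is Sfp with the accession as filed and its product quenches rhodamine fluorescence; potency is the fitted concentration of half-maximal effect; 0% = enzyme reaction without inhibitor and -100% = no enzyme wells; top concentration of the series not given in the record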
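With Hepes-Na pH 7.6 buffer containing 10 mM MgCl2, Sfp (15 nM) modified BHQ-2-YbbR (12.5 uM) using rhodamine-CoA (5 uM). Two reads 30 minutes apart at 525/598 nm yielded each well's rate.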
gsp antagonist = qHTS for Antagonists of gsp, the Etiologic Mutation Responsible for Fibrous Dysplasia/McCune-Albright Syndrome: qHTS; gsp-mutant cells, cAMP HTRF, 30 min; control for the full effect not named in the record; Potency, µM (highest dose often 76.9 µM), inactives show at the highest dose activity change, negative = inhibition, hits mostly inhibitors; 340,000 compounds, 0.4% hits; active = falling curve of any shape with a large fitted effect; inconclusive = falling curve, mostly with a smaller effect; inactive = flat or rising curve; cell line not stated here;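 note: intracellular cAMP measured with PDE inhibitor Ro 20-1724 present during compound exposure; potency is the fitted concentration of half-maximal effect; % is set by controls: 0 for no effect and ±100 for the full control effect; nearly all actives have a fitted effect of over 65% in size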
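HTRF cAMP read-out (cAMP-d2 plus anti-cAMP antibody-K in lysis buffer, 30 min RT). Before lysis, cells are exposed to compounds with […] for 30 min at 37C in DPBS containing Ca/Mg, BSA and Tween 20.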
* = called active by the depositor; ? = inconclusive; / = not tested or not shown; [ ] = another dose, or the depositor's remark. An unsorted share of the library; about 5.1% have a hit in one of these screens.

SMILES	D2 agonist	Menin MLL FP FL	PINK1 expr mod	gsp ag	ClpP mod	Sfp PPTase inh	gsp antagonist
O=C(CCOc1ccccc1)NCC(c1ccco1)N1CCCCC1 (stereo not drawn)	-3.3	4.5	-14.4%[38.3 µM]	29.3%	-5.2%	9.9%	10.4%
COc1ccc(OC)c(NS(=O)(=O)c2ccc(Cl)s2)c1	-3.0	0.3	20.3%[38.3 µM]	-6.8%	0.7%	17.1%	-1.3%
NC(=O)NC(=O)CC1S/C(=N/N=C2\CSC(=O)N2)NC1=O (stereo not drawn)	-2.4	5.5	-0.3%	?	/	11.2µM*	5.1%
O=C(Nc1ccc2c(c1)OCO2)C1CC(c2cccc(Br)c2)=NO1 (stereo not drawn)	-0.5	-5.1	2.3%	16.7%	/	-31.6%	-12.9%
Cc1ccc(N(C(=O)c2sc(C)nc2C)C(C(=O)NC(C)(C)C)c2ccncc2)cc1 (stereo not drawn)	-2.9	1.7	1.2%	10.4%[15.4 µM]	/	2.3%	/
CCCCc1ccc(NC(=O)C2CCN(S(C)(=O)=O)CC2)cc1	-2.9	-0.3	2.4%[38.3 µM]	1.4%	0.5%	22.2%	4.3%
Cc1cccc(CSCCNC(=O)CN2C(=O)c3ccccc3S2(=O)=O)c1	-0.7	-3.7	1.0%	-5.3%[15.4 µM]	/	15.3%	/
CCCCn1c(=O)n(CC(O)c2ccccc2)c(=O)c2c1ncn2C1CCCC1 (stereo not drawn)	-1.4	3.8	-1.1%	3.4%	-2.7%	2.5%	-22.6%
Cc1ccc(N2CCN(S(=O)(=O)N3CCCCC3)CC2)cc1C	-3.7	2.0	0.2%	-4.3%[15.4 µM]	/	20.3%	8.3%
O=C(NCCc1ccc(O)cc1)c1ccc(Cl)cc1	0.3	2.1	1.2%	-16.5%	?	7.9%	7.4%
COc1ccc(C)cc1N(CC(=O)NC1CCCC1)C(=O)CCC(=O)Nc1cc(C)on1	-3.7	-0.3	1.3%	-9.9%	0.3%	14.7%	-12.4%
O=c1c2ccccc2nc(-c2ccc(Cl)cc2Cl)n1CCCn1ccnc1	1.2	-1.3	-4.4%	19.1%	-24.1%	7.9%	-4.8%
CCN(CC)c1ccc(NC(=O)CCc2nnc3ccc(N4CCCC4)nn23)c(C)c1	1.8	-0.6	-3.2%	15.7%	1.8%	-7.0%	?
O=C(Cc1ccccc1)NNS(=O)(=O)c1ccc([N+](=O)[O-])cc1	2.5	3.2	1.3%	1.1%	1.2%	-11.5%	?
COc1ccc(NC(=S)NCCCc2ccccc2)cc1	-2.7	4.6	1.5%	5.8%	0.7%	10.7%	40.0%[activator]
COc1ccc(N=C2SCC(=O)N2Cc2ccccc2)cc1	-5.0	0.6	-1.0%	-0.7%[15.4 µM]	/	8.0%	-8.4%
CCOc1ccccc1NC(=O)NCc1ccccc1	-2.5	0.2	0.7%	-46.1%[inhibitor]	/	12.3%	8.9%
CCOc1ccc(CCNC(=O)c2nn(C)c3c2CS(=O)(=O)c2ccccc2-3)cc1	-2.9	3.3	1.9%	-8.6%	0.7%	5.1%	?
Cc1ccc(O)c(CNCCNCc2cc(C)ccc2O)c1	2.4	/	8.6%	/	-3.0%	/	-2.3%
Cc1cc(C)c(C)c(S(=O)(=O)NCc2ccc(C(=O)N3CCN(C)CC3)cc2)c1C	-4.9	/	-0.9%	1.8%[15.4 µM]	0.5%	3.1%	4.6%
CC(C)C(=O)Nc1c2c(nn1-c1ccccc1)CSC2	3.4	/	-0.7%	-23.3%	0.2%	6.9%	5.5%
O=c1cc(N2CCN(Cc3ccccc3)CC2)c(-c2ccccc2)n[nH]1	-1.6	2.7	-4.0%	21.2%	0.6%	16.8%	5.6%
S=c1nc(-c2ccccc2Cl)n(Cc2cccnc2)c2c1CCCC2	-1.7	-1.6	-0.9%	18.1%	0.6%	16.4%	4.7%
CC(C)(C)OC(=O)N(CCc1ccccc1)Cc1ccccc1OCc1ccc(NC(=O)C2CCCC2)cc1	-2.9	/	1.1%	/	-1.5%	/	-5.9%
CC1(C)OC2CCN3C(C(O)COS3(=O)=O)C2O1 (stereo not drawn)	-1.6	-3.8	1.8%	?	-3.5%	16.7%	-6.8%
Next part
SMILES	D2 agonist	Menin MLL FP FL	PINK1 expr mod	gsp ag	ClpP mod	Sfp PPTase inh	gsp antagonist
CC(C)(C)NC(=O)COC(=O)CCC(=O)c1ccc(Cl)cc1	-3.8	4.4	-0.7%	-5.0%[15.4 µM]	/	19.0%	12.1%
c1ccc2c(c1)CCN(c1ncnc3c1[nH]c1ccccc13)C2	6.0	-2.3	2.5%	5.9%	20µM*	-8.5%	?
O=C(NC1CCCC1)c1ccc(CS(=O)(=O)c2ccc(Br)cc2)o1	-3.4	0.3	0.3%	-82.7%[inhibitor]	2.1%	18.4%	0.3%
CCn1cc(/C=N/NS(=O)(=O)c2ccc(OC)cc2)c(C)n1	-0.7	-2.2	0.1%	12.0%	31.6µM*	1.3%	7.1%
CC(C)Cn1c(SC(C)C(=O)Nc2ccc3c(c2)OCCO3)nc2ccccc2c1=O (stereo not drawn)	-1.6	3.7	-0.8%[38.3 µM]	-3.8%	-2.0%	8.9%	-10.6%
Cc1ccc(-c2cc(C(F)F)n3ncc(C(=O)N4CCN(c5cccc(C)c5C)CC4)c3n2)cc1	-5.1	5.3	3.1%	-0.4%	-0.1%	-0.8%	1.4%
CC(C)Cn1c(N)c(C(=O)COC(=O)COc2cccc(C(F)(F)F)c2)c(=O)n(C)c1=O	3.0	/	0.2%	?	-0.3%	5.4%	-10.6%
COCCCNC(=O)c1cccc2c(=O)c(C)c(-c3ccccc3)oc12	0.6	6.9	-1.3%	4.2%	-0.9%	4.4%	5.6%
CCOc1cccc(CNCCO)c1OCc1ccc(Cl)cc1	-3.4	-2.1	7.4%	1.0%	-1.2%	-0.2%	12.0%
Cc1cccc(CC(=O)NCC2CCCCC2)c1	1.5	-5.5	-0.5%	-0.6%	-1.7%	0.5%	5.2%
Nc1[nH]nc2nc(-c3ccccc3)[nH]c(=O)c12	0.8	1.2	-0.1%	-16.6%	-5.3%	7.9%	-17.2%
COc1cccc2sc(=NC(=O)CS(=O)(=O)c3ccc(F)cc3)n(C)c12	4.7	/	1.0%	24.7%	-5.9%	/	-6.0%
Cc1ccc(C(=O)NNC(=O)CSc2nnc(C3CC3)n2C)cc1	3.0	-2.1	-0.7%	-2.1%[15.4 µM]	/	9.4%	8.3%
CC(C)c1nc(-c2ccccn2)no1	-1.1	0.7	5.5%	12.3%	-0.2%	20.8%	13.2%
O=c1oc2ccccc2c(O)c1C=Nc1cccnc1	-3.5	1.9	1.1%	18.6%[15.4 µM]	0.6%	19.7%	-6.5%
O=C(c1cc(F)ccc1F)C1CCCN(C(=O)CCCN2CCCCC2=O)C1 (stereo not drawn)	3.3	-2.2	-0.6%	17.0%	0.4%	-12.6%	3.2%
CC(C)(C)c1ccc(C(=O)NNC(=O)Cc2cccc3ccccc23)cc1	0.7	7.5	-4.9%[38.3 µM]	-2.3%	-0.8%	16.7%	9.4%
CCN(C[C@H]1N[C@@](Cc2ccccc2)(C(=O)OC)[C@H]2C(=O)N(Cc3ccccc3)C(=O)[C@@H]12)C(=O)Nc1ccc(Cl)cc1	-1.6	/	0.8%	/	1.5%	/	-12.6%
O=C(Cc1ccccc1)c1c[nH]c(C(=O)C(Cl)(Cl)Cl)c1	-3.5	-12.9	7.6%	12.5%[15.4 µM]	-0.4%	4.8%	4.5%
O=C(COc1nsnc1N1CCOCC1)N/N=C/c1ccccc1O	3.5	2.2	4.1%	?	-14.1%	-6.6%	3.8%
CCOc1ccc(N(CC(=O)O)S(=O)(=O)c2cccnc2)cc1	1.0	-1.2	0.2%	-32.7%	0.3%	15.2%	9.3%
O=C(Cn1cnc2ccccc21)Nc1ccc2c(c1)OCCCO2	4.7	/	1.7%	?	-0.4%	/	-6.5%
O=[N+]([O-])c1cccc(/C=C/c2ccc3cccc(O)c3n2)c1	-4.5	3.2	7.4%	-32.6%[inhibitor]	0.7%	8.3%	-2.2%
Oc1cnc2ccccc2c1CN1CCOCC1	-0.2	0.9	-1.4%	-6.6%	20µM*	19.7%	-2.7%
N#Cc1cc2ccccc2nc1SCc1ccccn1	0.5	8.6	?	-1.6%	-7.2%	-21.4%	-3.6%
Further entries
SMILES	D2 agonist	Menin MLL FP FL	PINK1 expr mod	gsp ag	ClpP mod	Sfp PPTase inh	gsp antagonist
CCNC(=O)CCn1nc(-c2ccc(C)cc2)c2ccccc2c1=O	-2.7	-0.4	3.6%	-5.5%	/	4.1%	-18.7%
CCC(C)NC(=O)C1CCN(S(=O)(=O)c2ccc3nc4c(c(C(=O)O)c3c2)CCCCC4)CC1 (stereo not drawn)	-3.1	-1.6	1.2%	?	-2.8%	2.8%	?
CCN(C(=O)c1cc(Cl)ccc1OC)c1ccccc1C	-1.2	-0.2	2.0%	0.3%	1.7%	8.3%	6.3%
O=C(CNc1cccc2ccccc12)N/N=C/c1cccc(Oc2ccccc2)c1	-1.1	0.5	?	-11.9%	-8.5%	-3.8%	-17.9%
COc1ccccc1CNC(=O)COC(=O)Cc1c(Cl)cccc1Cl	0.5	2.3	2.9%	?	0.3%	10.3%	2.6%
Cc1cccnc1NC(=O)C1CCCN1S(=O)(=O)c1ccc(Cl)cc1 (stereo not drawn)	-2.1	/	-2.2%	-65.8%[inhibitor]	-5.6%	18.8%	10.9%
O=C(CSc1nnc(NC(=O)c2ccco2)s1)NC1CCCC1	-4.0	-1.0	1.5%	9.7%[15.4 µM]	0.4%	-2.4%	-4.1%
